Ecoli rRNA inh = inhibitors of bacterial rRNA selective over humanized ribosomes | AID 720706 | E. coli WT GFP vs humanized-ribosome RFP mutants, fluorescence, 24 h; hits give low values; DMSO median 0, no signal -100 | 1.6% of 350,000 active | GFP signal change (wild-type ribosome), % (concentration not given with the values);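 active means significant combined selectivity score with lowered wild-type GFP, culture density cut under 30%, mutant RFP and density less affected; inactive means any of these conditions unmet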; further: one replicate is shown; some compounds called inactive have numbers as strong as hits
FGF22 binding = shifts melting point of recombinant human FGF22. Q9HCT0. recombinant FGF22 thermal shift, SYPRO orange fluorescence; percent of sucrose octasulfate shift, DMSO zero. calls only at 9.99 µM. 1.5% of 340,000 active. AID 651658;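 active means melting point raised past a set limit in the mean and every replicate; three in four hits are not shown here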
Target sequence (Q9HCT0 whole entry, looked up): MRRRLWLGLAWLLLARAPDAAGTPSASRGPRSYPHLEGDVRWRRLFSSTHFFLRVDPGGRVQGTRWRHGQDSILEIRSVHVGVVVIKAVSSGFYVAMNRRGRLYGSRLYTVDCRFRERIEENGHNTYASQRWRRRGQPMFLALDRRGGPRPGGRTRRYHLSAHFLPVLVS
MLL AF4-AF9 inh = MLL-AF4/AF9 protein interaction inhibition. AlphaScreen, biotin-AF4 peptide binding to FLAG-AF9. inhibition, % at 10 µM. 0.47% of 350,000 active. AID 651704;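 active means every replicate reaching a set inhibition limit, whatever the replicate mean, cut at about 25% in these data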;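 further: 0% = plate neutral control median and 100% = total signal loss; the record names both 10 and 1 µM as test concentration; the first replicate is given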
Target sequence (P42568 whole entry, looked up): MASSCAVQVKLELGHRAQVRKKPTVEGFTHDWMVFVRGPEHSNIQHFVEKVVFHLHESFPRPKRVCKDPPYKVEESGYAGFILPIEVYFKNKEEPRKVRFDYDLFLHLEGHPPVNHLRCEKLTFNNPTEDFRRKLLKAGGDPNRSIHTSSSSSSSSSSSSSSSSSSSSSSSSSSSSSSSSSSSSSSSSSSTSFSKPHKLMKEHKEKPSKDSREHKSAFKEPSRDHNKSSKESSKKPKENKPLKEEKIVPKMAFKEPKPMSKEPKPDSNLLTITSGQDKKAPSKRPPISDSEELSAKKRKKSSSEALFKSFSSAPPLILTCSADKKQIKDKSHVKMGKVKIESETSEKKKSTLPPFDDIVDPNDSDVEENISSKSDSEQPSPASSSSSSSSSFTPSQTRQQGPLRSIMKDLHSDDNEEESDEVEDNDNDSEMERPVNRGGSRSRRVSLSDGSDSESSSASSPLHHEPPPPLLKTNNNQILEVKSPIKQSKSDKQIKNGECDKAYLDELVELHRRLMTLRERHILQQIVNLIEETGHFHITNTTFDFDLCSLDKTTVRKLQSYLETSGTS
Ecoli rRNA inh OD600 = recorded beside Ecoli rRNA inh, whose call it bears; OD600 change, %; measured here: OD600 growth;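 optical density of the mix in the first replicate; 0 = DMSO median and -100 = no signal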
Ecoli rRNA inh RFP = also measured in Ecoli rRNA inh; calls as there; RFP signal change, %; measured here: RFP humanized mutant strains;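 first replicate; 0 = DMSO median and -100 = no signal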
* hit, by the source's call; i = inactive.

SMILES	Ecoli rRNA inh	Ecoli rRNA inh OD600	Ecoli rRNA inh RFP	FGF22 binding	MLL AF4-AF9 inh
Cc1ccccc1CN1C(=O)CN(S(C)(=O)=O)CC1(C)C(=O)Nc1ccc2c(c1)OCCO2 (centres undefined)	-1	10	0.2	i	-2.8
C#CC1(NC(=S)Nc2cccc(OC)c2)CCCCC1	2	6	5.5	i	2.1
CC1(C(=O)NS(=O)(=O)c2ccccc2Cl)CCN1C(=O)CCC1CCCC1 (centres undefined)	12	24	-2.1	i	-5.1
C[C@H]1CN([C@@H](C)CO)C(=O)Cc2cc(NS(=O)(=O)c3cccs3)ccc2O[C@H]1CN(C)Cc1ccc(Cl)c(Cl)c1	1	-13	0.7	i	0.1
COc1cccc(CNC(=O)c2cc3c(c(-c4cccc(-c5cccc(C#N)c5)c4)n2)[C@@H](CCO)N([S@](=O)C(C)(C)C)C3)c1	2	12	5.4	i	3.3
CO[C@@H]1CN(C)C(=O)c2cc(NS(=O)(=O)CC(F)(F)F)ccc2OC[C@H](C)N(C(=O)c2ccc3c(c2)OCO3)C[C@@H]1C	1	5	0.5	i	-0.1
COCC(=O)N[C@@H]1CC[C@H](CC(=O)NCc2ccc(Cl)cc2)O[C@H]1CO	2	-1	-0.2	i	-0.7
C[C@@H]1CN([C@@H](C)CO)C(=O)c2cc(-c3ccc(C#N)cc3)cnc2O[C@@H]1CN(C)Cc1ccccn1	4	4	-3.8	i	-0.5
COCC(=O)Nc1ccc2c(c1)[C@@H]1C[C@H](CC(=O)NCc3ccc(-c4ccccc4)cc3)O[C@@H](CO)[C@@H]1O2	-7	1	1.4	i	-1.1
C[C@@H]1CN([C@@H](C)CO)S(=O)(=O)c2ccc(C3=CCCC3)cc2O[C@H]1CN(C)Cc1cccc(C(=O)O)c1	-4	-16	1.1	i	-9.7
CCc1nc2ccc(C(=O)NCCCN3CCCC3=O)cn2c1N(CC)C(C)=O	16	17	-2.0	i	-4.5
CCN(C[C@@H]1N[C@@H](CO)[C@H]1c1ccc(C2=CCCC2)cc1)C(=O)c1ccncc1	-1	-6	0.4	i	6.0
CC(C)C[C@H]1COc2cc(N3CCSCC3)ccc2S(=O)(=O)N1	-19	-9	-0.4	i	-0.5
CC(C)C#Cc1cnc2c(c1)C(=O)N([C@@H](C)CO)C[C@@H](C)[C@@H](CN(C)C(=O)CN1CCOCC1)O2	5	10	-0.6	i	-6.5
CCCC#Cc1ccc2c(c1)O[C@H](CN(C)S(C)(=O)=O)[C@H](C)CN([C@H](C)CO)S2(=O)=O	-3	-10	1.5	i	1.6
COc1ccc(NC(=O)Nc2ccc3c(c2)C(=O)N([C@@H](C)CO)C[C@H](C)[C@@H](CN(C)C(=O)NC(C)C)O3)cc1	0	2	0.2	i	-0.5
CO[C@@H]1CN(C)C(=O)c2cc(NC(=O)C3CCCCC3)ccc2OC[C@H](C)NC[C@@H]1C	0	-5	0.4	i	-1.8
COc1ccc([C@H]2CC(=O)C[C@@H](CCn3cc(-c4ccccc4)nn3)O2)cc1	11	16	-1.7	i	-0.5
C#Cc1ccc(NC(=O)C2(C)CCN2C(=O)C2(c3ccccc3)CCCC2)cc1 (centres undefined)	-1	1	-4.0	i	-0.9
COc1ccc(NC(=O)Nc2ccc3c(c2)C(=O)N([C@H](C)CO)C[C@H](C)[C@H](CN(C)S(=O)(=O)c2ccc(C)cc2)O3)cc1	-1	-3	-1.0	i	2.5
O=C(C[C@H]1CC[C@H](NC(=O)C2CCC2)[C@@H](CO)O1)NCc1ccncc1	-3	-14	1.8	i	-2.0
C[C@@H]1CN([C@H](C)CO)S(=O)(=O)c2ccc(-c3cccc(C(=O)N(C)C)c3)cc2O[C@H]1CN(C)Cc1ccc2c(c1)OCO2	-27	-40	-9.0	i	3.7
O=C(NCc1ccccc1OC(F)(F)F)C1CCC(=O)N(CCCN2CCOCC2)C1 (centres undefined)	0	13	-4.6	i	0.1
Cc1ccccc1-c1ccc([C@H]2[C@H]3CN(C(=O)Nc4cccc(F)c4)CCCCN3[C@H]2CO)cc1	0	-29	6.4	i	-0.9
COc1ccc(NC(=O)Nc2ccc3c(c2)C(=O)N([C@H](C)CO)C[C@H](C)[C@@H](CN(C)Cc2ccc(C(F)(F)F)cc2)OCCCC[C@@H](C)O3)cc1	1	4	-0.9	i	2.1
COc1cccc(-c2oc3c(c2-c2ccc(OC)nc2)C(O)CCC3)c1 (centres undefined)	17	12	7.4	i	3.0
Cc1c(C)c([N+](=O)[O-])c(C)c(C)c1N	-8	-9	0.1	i	2.9
COCC(=O)Nc1ccc2c(c1)OC[C@H](C)N(Cc1cccc(F)c1)C[C@@H](C)[C@H](OC)CN(C)C2=O	-4	-7	3.2	i	6.5
Cc1noc(C)c1S(=O)(=O)Nc1ccc2c(c1)C(=O)N([C@H](C)CO)C[C@@H](C)[C@H](CN(C)CC1CC1)O2	7	-1	-0.6	i	-1.7
C[C@@H]1CCCCO[C@@H](CN(C)C)[C@@H](C)CN([C@H](C)CO)C(=O)c2cc(NS(=O)(=O)c3cccs3)ccc2O1	2	5	-2.5	i	-0.6
C[C@@H](O)C#Cc1ccc([C@H]2[C@H]3CN(S(=O)(=O)Cc4ccccc4)CCCCN3[C@H]2CO)cc1	-1	0	-4.2	i	-4.1
O=C(C[C@H]1C=C[C@@H](NC(=O)c2ccc3c(c2)OCO3)[C@H](CO)O1)NC1Cc2ccccc2C1	0	5	-0.9	i	-1.3
C[C@@H]1CN([C@@H](C)CO)C(=O)Cc2cc(NS(C)(=O)=O)ccc2O[C@@H]1CN(C)C(=O)Nc1ccc(C(F)(F)F)cc1	-1	-15	1.5	i	-1.1
C[C@@H]1CN([C@H](C)CO)C(=O)c2cc(N(C)C)ccc2O[C@H]1CN(C)C	5	6	3.3	i	-3.7
COc1ccc(S(=O)(=O)N(C)C[C@H]2Oc3ccc(NC(=O)CCN4CCOCC4)cc3C(=O)N([C@H](C)CO)C[C@@H]2C)cc1	5	1	-1.4	i	-2.0
C[C@@H]1CN([C@@H](C)CO)C(=O)c2cccc(NS(=O)(=O)c3ccc(Cl)cc3)c2O[C@@H]1CN(C)Cc1ccccc1	1	-12	1.1	i	-0.8
CCCC#Cc1ccc([C@@H]2[C@H](CO)N3CCCCN(Cc4cncnc4)C[C@@H]23)cc1	9	11	-0.2	i	13
CCOC(=O)C1(C)CCCCN1C(=O)c1ccco1 (centres undefined)	15	19	2.9	i	-0.9
O=P(C(=S)Nc1ccccc1Cl)(c1ccccc1)c1ccccc1	-64	-73	-23	i	4.3
COc1ccc(S(=O)(=O)N2CC3(CN(C(=O)CN(C)C)[C@@H](CO)c4c3c3ccc(OC)cc3n4C)C2)cc1	0	-11	0.3	i	23
Cc1noc(C)c1NC(=O)NCC[C@H]1CC[C@@H](NC(=O)Cc2cccnc2)[C@H](CO)O1	3	4	-0.6	i	5.0
C[C@@H]1CN([C@@H](C)CO)C(=O)c2cc(NC(=O)C3CC3)ccc2O[C@@H]1CN(C)Cc1ccc2c(c1)OCO2	5	10	0.9	i	3.5
CC=Cc1ccc2n(c1=O)C[C@@H]1[C@@H](CO)[C@H](C(=O)NCC)[C@H]2N1CC1CCOCC1 (mixture of isomers)	5	2	-1.1	i	1.3
C[C@@H]1CN([C@@H](C)CO)C(=O)c2cccc(NS(=O)(=O)c3cccs3)c2O[C@@H]1CN(C)Cc1ccc2c(c1)OCO2	3	8	-1.3	i	-0.5
C[C@H](CO)N1C[C@H](C)[C@H](CN(C)C(=O)NC2CCCCC2)Oc2c(NC(=O)Nc3ccc(C(F)(F)F)cc3)cccc2C1=O	6	8	-1.4	i	2.4
CCCCOc1cccc2c(=O)n(CC(=O)Nc3ccc4c(c3)OCCO4)ccc12	12	10	-1.0	i	0.0
c1ccc(CN2CCOCC2)nc1	8	10	2.8	i	-1.1
C[C@@H]1CN([C@@H](C)CO)C(=O)c2cc(NC(=O)CCN3CCOCC3)ccc2O[C@H]1CN(C)S(=O)(=O)c1ccccc1	3	2	-2.6	i	-1.7
Cc1noc(C)c1S(=O)(=O)Nc1ccc2c(c1)CC(=O)N([C@H](C)CO)C[C@@H](C)[C@@H](CN(C)S(=O)(=O)c1cccs1)O2	3	6	-0.5	i	-0.3
CCCC#Cc1ccc2c(c1)O[C@@H](CN(C)C(=O)C1CC1)[C@H](C)CN([C@H](C)CO)S2(=O)=O	-2	-12	0.6	i	3.1
CCCNC(=O)N1C[C@H]2[C@@H](c3ccccc31)[C@H](CO)N2C(=O)c1ccncc1	-1	4	-2.0	i	-1.5
COc1ccc(S(=O)(=O)N(C)C[C@H]2Oc3ccc(NC(=O)CCCCCC(=O)Nc4ccccc4N)cc3C(=O)N([C@@H](C)CO)C[C@@H]2C)cc1	-4	-4	-1.7	i	-13
C[C@@H]1CN([C@@H](C)CO)C(=O)c2cccc(NC(=O)Nc3ccc(C(F)(F)F)cc3)c2O[C@@H]1CN(C)Cc1ccc(-c2ccccc2)cc1	4	7	6.6	i	-2.7
CCCNC(=O)N1[C@@H](CO)[C@H](c2ccccc2)[C@@H]1CNC(=O)c1ccccc1	-4	2	-1.3	i	-0.7
COCC(=O)Nc1ccc2c(c1)OC[C@H](C)N(C(=O)CC1CC1)C[C@H](C)[C@@H](OC)CN(C)C2=O	-2	4	-2.0	i	-0.2
COCC(=O)N1CC(=O)N2[C@H](CO)[C@H](c3ccc(-c4ccncc4)cc3)[C@@H]2C1	2	0	-5.8	i	-0.8
C[C@H]1CCCCO[C@@H](CN(C)S(=O)(=O)c2cccs2)[C@@H](C)CN([C@@H](C)CO)C(=O)c2cc(NC(=O)Nc3ccc(C(F)(F)F)cc3)ccc2O1	-1	-3	-2.8	i	-0.7
Cc1noc(C)c1S(=O)(=O)Nc1ccc2c(c1)CC(=O)N([C@H](C)CO)C[C@H](C)[C@@H](CN(C)S(=O)(=O)c1c(C)noc1C)O2	2	4	-1.0	i	0.1
C[C@@H]1CN([C@@H](C)CO)C(=O)c2cc(C3=CCCCC3)cnc2O[C@H]1CN(C)C(=O)Cc1cccnc1	-3	-4	-1.9	i	0.2
C[C@@H]1CN([C@@H](C)CO)C(=O)c2cc(NC(=O)CCC(F)(F)F)ccc2O[C@H]1CN(C)S(=O)(=O)c1ccccc1	0	3	-1.4	i	-0.8

(continued)
SMILES	Ecoli rRNA inh	Ecoli rRNA inh OD600	Ecoli rRNA inh RFP	FGF22 binding	MLL AF4-AF9 inh
C[C@@H]1CN([C@H](C)CO)C(=O)c2cc(NC(=O)Nc3ccc(F)cc3)ccc2O[C@H]1CN(C)Cc1ccc(-c2ccccc2)cc1	-5	-6	0.9	i	2.9
COc1ncc(-c2c(-c3ccccc3OC)sc3ccccc23)cn1	2	-24	-2.5	i	2.9
Cc1noc(C)c1NC(=O)Nc1ccc2c(c1)C(=O)N([C@H](C)CO)C[C@@H](C)[C@@H](CN(C)C)O2	6	-3	0.4	i	-5.5
N#C[C@@H]1[C@@H](c2ccc(C3=CCCC3)cc2)[C@@H](CO)N1C(=O)c1cccc(F)c1	0	-3	-0.7	i	-0.5
CCNC(=O)C[C@@H]1CC[C@H]2[C@@H](COC[C@@H](O)CN2C(=O)C2CC2)O1	4	13	-3.2	i	-1.8
CC(C)c1cn(CC[C@@H]2CC[C@@H](NC(=O)C3CCCC3)[C@@H](CO)O2)nn1	3	2	-0.9	i	-1.4
Cc1noc(C)c1NC(=O)Nc1ccc2c(c1)C(=O)N([C@@H](C)CO)C[C@@H](C)[C@H](CN(C)Cc1ccc(C(=O)Nc3ccccc3N)cc1)O2	0	2	-2.1	i	0.3
CC(C)NC(=O)NCC[C@H]1CC[C@H](NC(=O)CCN2CCCCC2)[C@@H](CO)O1	2	8	-0.2	i	5.5
O=C(C[C@@H]1C=C[C@H](NC(=O)Nc2cccc(F)c2)[C@H](CO)O1)NCC1CC1	-3	-7	1.0	i	-0.3

Molecules above that contain a furan ring, fused or not (2):
SMILES	Ecoli rRNA inh	Ecoli rRNA inh OD600	Ecoli rRNA inh RFP	FGF22 binding	MLL AF4-AF9 inh
COc1cccc(-c2oc3c(c2-c2ccc(OC)nc2)C(O)CCC3)c1 (centres undefined)	17	12	7.4	i	3.0
CCOC(=O)C1(C)CCCCN1C(=O)c1ccco1 (centres undefined)	15	19	2.9	i	-0.9

Gathered by group, the compounds so far with a cyano group
SMILES	Ecoli rRNA inh	Ecoli rRNA inh OD600	Ecoli rRNA inh RFP	FGF22 binding	MLL AF4-AF9 inh
COc1cccc(CNC(=O)c2cc3c(c(-c4cccc(-c5cccc(C#N)c5)c4)n2)[C@@H](CCO)N([S@](=O)C(C)(C)C)C3)c1	2	12	5.4	i	3.3
C[C@@H]1CN([C@@H](C)CO)C(=O)c2cc(-c3ccc(C#N)cc3)cnc2O[C@@H]1CN(C)Cc1ccccn1	4	4	-3.8	i	-0.5
N#C[C@@H]1[C@@H](c2ccc(C3=CCCC3)cc2)[C@@H](CO)N1C(=O)c1cccc(F)c1	0	-3	-0.7	i	-0.5

The list is partial; the hit share may differ from the screen's.
